Screening results: PubChem BioAssay, Southern Research Specialized Biocontainment Screening Center
Mtb betalactam = beta-lactam sensitization of Mtb H37Rv | M. tuberculosis H37Rv growth with meropenem, percent inhibition; hits of this screen are not shown here | inhibition, % at 25 µM | 330,000 compounds, 0.27% hits | AID 434955;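 active = about 74% or more and at least 40 points above the plate without the antibiotic, then above 30% in a dose series; inconclusive = first-round hits that could not be retested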;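 also: growth measured after seven days incubation then overnight dye step; 0% = bacteria only wells and 100% = bacteria with antibiotic; twin plates without the antibiotic show which effects depend on it; some results filed as inactive read as strong as hits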
* hit, by the source's call; u = inconclusive.

SMILES	Mtb betalactam
COc1ccc(C(=O)NCC(C)NC(=O)c2ccc(OC)cc2)cc1 (stereo not given)	-2.5
Cc1cc(C(=O)OCC(=O)Nc2ccc(F)cc2)c(C)n1C1CC1	4.5
Cc1cccc(C)c1NC(=O)CNC(=O)c1ccc2ccccc2n1	-5.9
Cc1ccc(N(CCC#N)C(=O)CSc2nc3ccccc3c(=O)[nH]2)cc1	1.4
CC1CCCCC1NC(=O)CN1C(=O)NC(C)(c2cc(F)ccc2F)C1=O (stereo not given)	-3.0
CC(Oc1ccccc1F)c1nnc(SCC(=O)c2c(N)n(C3CC3)c(=O)[nH]c2=O)o1 (stereo not given)	-2.8
O=S(=O)(c1ccc(=S)[nH]c1)N1CCCCC1	-0.6
O=C(NCc1ccc(F)cc1)C1CCCN(S(=O)(=O)c2ccc(Br)s2)C1 (stereo not given)	-0.8
CC(C)(CNC(=O)c1ccc(S(=O)(=O)Nc2ccc(Cl)cc2)cc1)N1CCOCC1	1.8
C=CC[C@@H](CC(=O)N[C@H](CO)Cc1ccccc1)C(=O)N[C@@H](COC(=O)[C@@H](CC=C)CC(=O)OC(C)(C)C)Cc1c[nH]c2ccccc12	-2.0
Cc1ccc(S(=O)(=O)N2CCOCC2)cc1NC(=O)CNC(C)c1ccccc1 (stereo not given)	-1.0
Cc1c(C(=O)N2CCN(C(c3ccccc3)c3ccccc3)CC2)oc2ccccc12	4.6
C=CCNc1oc(-c2ccc(Cl)cc2)nc1C#N	60.1
Cc1ccc(SCC(=O)NC2CCCCCC2)cc1	u
COc1cccc(NC(=O)CN(C)C(C)C(=O)N2CCCC2)c1 (stereo not given)	-5.5
O=C(CSc1nc2nn(-c3ccccc3)c(=O)c-2c2n1CCCCC2)Nc1cccc(F)c1	7.9
COc1ccc([C@@]2(C(C)C)ON(c3ccccc3C(F)(F)F)C2=O)cc1	2.0
CN(C(=O)COC(=O)c1ccc(=O)n(Cc2ccccc2)n1)C1CCCCC1	-4.2
CC(=O)Nc1ccc(S(=O)(=O)N2CCN(c3ncccn3)CC2)cc1	-1.4
COc1ccc(C(=O)Nc2ccnn2C2CCN(C(=O)c3cc(C)on3)CC2)cc1	-9.5
CN(C(=O)CSc1nc2ccccc2c(=O)n1-c1ccc(F)cc1)C1CCS(=O)(=O)C1 (stereo not given)	4.6
CC(Oc1ccccc1[N+](=O)[O-])C(=O)N/N=C/c1ccoc1 (stereo not given)	0.7
CC(=O)c1ccc(S(=O)(=O)N2CCN(C(=O)c3ccc(N)c([N+](=O)[O-])c3)CC2)cc1	1.7
Cc1cccc(NC(=O)COC(=O)COc2ccc3c(c2)CCC3)c1	-3.7
Cn1c(-c2ccc(F)cc2)cc2onc(-c3ccccc3Cl)c2c1=O	-17.9
COC(=O)c1ccc(NC(=O)Cn2nc(C)c3ccccc3c2=O)cc1	0.5
COc1ccc(C(=O)NC(C)c2ccncc2)cc1S(=O)(=O)N(C)Cc1ccccc1 (stereo not given)	-1.8
O=C(CCCN1CCN(c2ccccn2)CC1)c1ccc(F)cc1	1.3
O=S(=O)(Nc1cccc(S(=O)(=O)N2CCCC2)c1)c1ccccc1F	-1.3
CCOC(=O)[C@H]1[C@H]2COc3ccccc3[C@@H]2N2C(=O)c3ccccc3NC(=O)[C@@]12C	-3.2
CCOc1ccc(S(=O)(=O)N2CCCCC2)cc1NC(=O)Cc1cccc(C(F)(F)F)c1	2.4
COc1ccc(S(=O)(=O)N(C)C[C@H]2Oc3ccc(NS(=O)(=O)c4cn(C)cn4)cc3C(=O)N([C@H](C)CO)C[C@@H]2C)cc1	-3.6
CC(=O)O[C@H]1C(=O)[C@@]2(C)[C@H]([C@H](OC(=O)c3ccccc3)[C@]3(O)C[C@H](OC(=O)[C@H](O)[C@@H](NC(=O)c4ccccc4)c4ccccc4)C(C)=C1C3(C)C)[C@]1(OC(C)=O)CO[C@@H]1C[C@@H]2O	-7.2
CCCn1c(N)c(C(=O)COC(=O)CCS(=O)(=O)c2ccc(C)cc2)c(=O)[nH]c1=O	1.0
O=C(COC(=O)c1ccccc1)Nc1ncc([N+](=O)[O-])s1	5.4
CNC[C@H](Cc1cccc2ccccc12)NC[C@H](CCSC)NCC1CCC(C(C)(C)C)CC1 (stereo not given in full)	99.6
COc1ccc([N+](=O)[O-])cc1NC(=O)C(C)OC(=O)Cc1ccc(OC)c(OC)c1 (stereo not given)	-1.3
c1ccc(CSCc2ccccc2)cc1	-8.8
CCOC(=O)[C@H]1[C@H]2COc3cc(OC)ccc3[C@@H]2N2C(=O)CN(Cc3ccco3)C(=O)[C@@]12C	4.3
CC1(C)NC(=O)N(CC(=O)OCC(=O)c2ccc(Cl)s2)C1=O	0.7
O=C(COC(=O)c1ccc(CO)cc1)Nc1ccc2ccccc2c1	-14.8
COc1ccc(NS(=O)(=O)c2cccc(C(=O)N3CCCCCCC3)c2)cc1	-2.0
COc1ccc(S(=O)(=O)NCC(=O)Nc2ccc(F)cc2)cc1	-2.3
COc1ccccc1C(=O)Nc1ccc(OCC(=O)N2CC(C)OC(C)C2)cc1 (stereo not given)	-0.7
CCCC(NC(=O)C(C)Sc1nnnn1C1CC1)c1ccccc1 (stereo not given)	-7.2
CCN(CC)C(=O)/C=C/c1ccccc1	0.9
Cc1cccc(C)c1NC(=O)CN(C)CC(=O)c1c(N)n(Cc2ccccc2)c(=O)n(C)c1=O	-6.7
CCN(C[C@H]1N[C@@](Cc2ccccc2)(C(=O)OC)[C@H]2C(=O)N(C)C(=O)[C@@H]12)C(=O)c1ccc(C(C)(C)C)cc1	4.2
CC(C)CN(C(=O)CSc1nc(N)cc(N)n1)C1CCS(=O)(=O)C1 (stereo not given)	-7.0
O=C(COC(=O)CCC(=O)c1ccc(F)cc1)NCCc1ccccc1	1.2
The results go on:
SMILES	Mtb betalactam
O=C1C=C(c2ccccc2C(F)(F)F)C[C@@H](c2ccc3c(c2)OCO3)C1	0.2
CCc1ccc2c(CC(=O)NNC(=O)c3ccncc3)coc2c1	-9.5
O=C(NCC1CC1)c1cccc2c1C(=O)c1ccc(N3CCCC3)cc1S2(=O)=O	7.0
CCOc1ccc(C(=O)NCC(=O)NCCCSc2ccccc2)cc1OCC	-12.0
Cc1ccc(S(=O)(=O)N2CCOCC2)cc1NC(=O)COc1ccccc1Cc1ccccc1	4.4
COc1cc(CC(=O)OCC(=O)c2ccc(F)cc2)cc(OC)c1OC	-5.7
c1ccc(CC[C@@H]2CC[C@@H](CCc3ccccc3)N2)cc1	2.6
N#Cc1ccc(OCC(=O)Nc2ccc(N3CCCC3)cc2)cc1	0.0
COc1ccc([C@H]2CC(=O)C=C(c3ccc(Cl)cc3C)C2)cc1	75.0
Cc1ccc(S(=O)(=O)NCc2ccccc2)cc1C(=O)NCCc1ccc(S(N)(=O)=O)cc1	-5.9
O=C(OCC(=O)N1N=C(c2ccc(Cl)cc2)CC1c1ccco1)c1cncc(Br)c1 (stereo not given)	0.2
Cc1cc(Br)ccc1NC(=O)CN(C)C(=O)C1=COCCO1	-4.1
O=C(COC(=O)c1c[nH]c(=O)[nH]c1=O)Nc1cccc([N+](=O)[O-])c1	-5.4
CCCCC(CC)COC(=O)c1ccccc1C(=O)OCC(CC)CCCC (stereo not given)	-5.4
COC(=O)[C@]1(C)N[C@H](CN(C)C(=O)Nc2ccc(C)cc2)[C@@H]2C(=O)N(C)C(=O)[C@@H]21	-5.5
CCSc1ccc([C@@H]2[C@H]3C(=O)N(C)C(=O)[C@H]3[C@]3(C(=O)OC)CCCCN23)cc1OC	-6.1
O=S(=O)(NC1CCN(S(=O)(=O)c2ccc3c(c2)OCCO3)C1)c1c(F)cccc1F (stereo not given)	-17.8
O=C(CCNC(=O)c1ccccc1Cl)Nc1nc2ccccc2[nH]1	2.4
CCN(CC(=O)Nc1cc(Cl)ccc1C)C(=O)C1COc2ccccc2O1 (stereo not given)	0.7
Cc1noc(C)c1NC(=O)Nc1ccc2c(c1)C(=O)N([C@H](C)CO)C[C@H](C)[C@@H](CN(C)C(=O)NC1CCCCC1)O2	1.9
O=C(c1cc(Br)ccc1O)N1CCN(S(=O)(=O)Cc2ccccc2)CC1	-0.7
COc1cc(Cl)c(C)cc1NC(=O)CSC1=NCCS1	3.4
Cc1ccc(C(=O)CCC(=O)OCC(=O)N(C)c2c(N)n(Cc3ccccc3)c(=O)[nH]c2=O)cc1	-1.6
Cc1ccc(NC(=O)C2CCCN2C(=O)c2cccs2)cc1C (stereo not given)	1.9
COC(=O)[C@]1(Cc2ccccc2)N[C@H](CN(C)S(=O)(=O)c2ccc(-c3ccccc3)cc2)[C@@H]2C(=O)N(C)C(=O)[C@@H]21	-0.2
C#CCOCCOCCOCCNc1nc(N2CCN(C(=O)CCCCCCCCCCNC(=O)[C@H](CO)n3cc(CCCSC)nn3)CC2)nc(N2CCN(C(=O)CCCCCCCCCCNC(=O)[C@@H]([C@H](C)O)n3cc(C)nn3)CC2)n1	2.9
COC(=O)C1=C(C)N(Cc2ccccc2)C(=S)N[C@H]1c1ccc(Br)cc1	-0.2
O=C(COC(=O)c1ccccn1)NC(=O)c1ccccc1	3.4
COC(=O)C1=C(c2ccc(F)cc2OCc2ccccc2)C[C@@H]2CC[C@H]1N2C(=O)NCc1ccccc1Cl	5.3
CC1(CCc2ccccc2)NC(=O)N(CC(=O)Nc2c(F)cccc2F)C1=O (stereo not given)	-1.4

An excerpt from above in order of molecular weight, largest number first.
SMILES	Mtb betalactam
CN(C(=O)COC(=O)c1ccc(=O)n(Cc2ccccc2)n1)C1CCCCC1	-4.2
O=C1C=C(c2ccccc2C(F)(F)F)C[C@@H](c2ccc3c(c2)OCO3)C1	0.2
C=CCNc1oc(-c2ccc(Cl)cc2)nc1C#N	60.1

Next compounds follow:
SMILES	Mtb betalactam
CC[C@]12c3[nH]c4ccccc4c3CCN1C(=O)C(CC(=O)NCCN1CCOCC1)C[C@@H]2C(=O)N1CCN(C(=O)c2ccco2)CC1 (stereo not given in full)	3.2
Cn1c(SCC(=O)Nc2cccnc2Cl)nc2ccccc21	1.1
CN(Cc1ccc(Cl)cc1)C(=O)c1ccc(S(=O)(=O)NCc2ccco2)cc1	0.9
Cc1ccc(C)c(SCC(=O)NC(=O)NC2CCCC2)c1	2.8
CCn1cnc2c(NCCc3cccnc3)nc(C#N)nc21	0.2
CC1CCCC(NC(=O)COC(=O)c2cccnc2Cl)C1C (stereo not given)	-4.4
O=C(NCCc1nc(-c2ccc(F)cc2)no1)c1ccc(F)cc1	1.6
CCCn1c(SCC(=O)c2c(N)n(C3CC3)c(=O)[nH]c2=O)nc2cc(S(N)(=O)=O)ccc21	-1.3
O=C(c1ccc([N+](=O)[O-])o1)N1CCCCCC1	99.5
CC(=O)Nc1ccc(S(=O)(=O)NC(C)C(=O)OCCOc2ccc(F)cc2)cc1 (stereo not given)	1.2
CC1CC1C(=O)OCC(=O)N(C)CC(=O)Nc1ccc(F)cc1 (stereo not given)	-9.0
CC(NC(=O)COC(=O)c1ccccc1O)C1CC2CCC1C2 (stereo not given)	7.7
O=C(CN1C(=O)NC2(CCCCC2)C1=O)Nc1cccc2ncccc12	-2.4
C#CCOCCOCCOCCNc1nc(N2CCN(C(=O)[C@H](CCCCN)n3cc(CN)nn3)CC2)nc(N2CCN(C(=O)[C@H](CCC(=O)O)n3cc([C@@H](N)[C@H](C)CC)nn3)CC2)n1	-3.6
COc1ccccc1-c1oc2ccccc2c1C#CCCCCO	10.7
NC(=O)c1ccc(NC(=O)COC(=O)CC23CC4CC(CC(Br)(C4)C2)C3)cc1	0.5
CCOC(=O)C1=C(COC(=O)/C=C/c2cccc(Br)c2)NC(=O)NC1C (stereo not given)	1.9
CC(=O)N1CCN(c2ccc(NCc3cccc4ccccc34)cc2)CC1	-6.1
CN(Cc1ccccc1)C(=O)c1nc[nH]c1C(=O)N1CCc2ccccc2C1	-5.2
CC(C(=O)Nc1ccc(C#N)cc1)N1CCN(C(=O)C2CC2)CC1 (stereo not given)	-2.6
CNC(CC(C)C)C(=O)NC1C(=O)NC(CC(N)=O)C(=O)NC2C(=O)NC3C(=O)NC(C(=O)NC(C(=O)O)c4cc(O)cc(O)c4-c4cc3ccc4O)C(O)c3ccc(c(Cl)c3)Oc3cc2cc(c3OC2OC(CO)C(O)C(O)C2OC2C[C@](C)(N)C(O)C(C)O2)Oc2ccc(cc2Cl)C1O (stereo not given in full)	95.0
CCN(C[C@H]1N[C@@](CC)(C(=O)OC)[C@H]2C(=O)N(Cc3ccccc3)C(=O)[C@@H]12)C(=O)COc1ccccc1	1.6
O=C(NCCCN1CCOCC1)c1ccc2nc(Cc3cccc(Cl)c3)oc2c1	1.8
CCC(CO)Oc1cc(NCc2ccc(OC)cc2)c2ncn(C(C)C)c2c1 (stereo not given)	69.9
COc1cccc(N2CCN(C(=O)CCC(=O)c3ccc(Cl)s3)CC2)c1	16.4
O=C(NCc1ccccc1)C(c1ccco1)N(C(=O)c1csnn1)C1CC1 (stereo not given)	-7.3
Cc1ccc(C(=O)NNC(=O)C(NC(=O)c2cccc(C)c2)C(C)C)cc1 (stereo not given)	-6.1
CC1(C)C[C@H]2C3=CCC4[C@@]5(C)CC[C@H](O)[C@@](C)(CO)C5CC[C@@]4(C)[C@]3(C)C[C@@H](O)[C@@]2(CO)[C@@H](O)[C@@H]1O (stereo not given in full)	2.4

Quoted at random: six entries already listed.
SMILES	Mtb betalactam
Cc1ccc(C(=O)NNC(=O)C(NC(=O)c2cccc(C)c2)C(C)C)cc1 (stereo not given)	-6.1
CCN(C[C@H]1N[C@@](CC)(C(=O)OC)[C@H]2C(=O)N(Cc3ccccc3)C(=O)[C@@H]12)C(=O)COc1ccccc1	1.6
O=C(NCCCN1CCOCC1)c1ccc2nc(Cc3cccc(Cl)c3)oc2c1	1.8
CNC(CC(C)C)C(=O)NC1C(=O)NC(CC(N)=O)C(=O)NC2C(=O)NC3C(=O)NC(C(=O)NC(C(=O)O)c4cc(O)cc(O)c4-c4cc3ccc4O)C(O)c3ccc(c(Cl)c3)Oc3cc2cc(c3OC2OC(CO)C(O)C(O)C2OC2C[C@](C)(N)C(O)C(C)O2)Oc2ccc(cc2Cl)C1O (stereo not given in full)	95.0
CCC(CO)Oc1cc(NCc2ccc(OC)cc2)c2ncn(C(C)C)c2c1 (stereo not given)	69.9
COc1cccc(N2CCN(C(=O)CCC(=O)c3ccc(Cl)s3)CC2)c1	16.4

This is a subset. The share of hits here may be higher or lower than overall.
